Assay outcomes as filed in PubChem.
ugtP null kill – growth inhibition of ugtP-null S. aureus, primary screen, RN4220 ugtP deletion, OD600 | 16 h; some inactives read as strong as hits | growth inhibition, % (concentration not given with the values) | 330,000 tested, 0.54% active;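 active means z-score under -3 and OD600 up to 0.15 on both plates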;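 further: plate controls were untreated wells for no effect and antibiotic for full effect; wells of about 80 µL received 100 nL stock; the first replicate is given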
Mtb hypoxia inh – PubChem AID 1159583; 300,000 tested, 0.1% active; fluorescence inhibition, % (no concentration beside the values); M. tuberculosis hypoxia-regulated fluorescent reporter, fluorescence;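 active means 35 to 45% if threefold the growth effect, above 45% if 1.5-fold the growth effect; inactive means the rest, general growth blockers included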;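 further: wells of about 50 µL received 100 nL stock; 0% = vehicle wells and 100% = reference inhibitor wells; whole bacteria with a GFP reporter of the hypoxia response; strong numbers were not always called active; many hits fall short of the cut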
BJeLR lethal – MLPCN primary cell-based screen for lethality selective to Ras in HRASV12 cells; BJeLR (HRASV12) viability, CellTiter-Glo ATP luminescence, 48 h; reference of the scale not given here; inhibition, % (no concentration beside the values); 300,000 tested, 0.17% active;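 active means replicate mean above 50%; inconclusive means above 50% but judged a plate artefact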;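 further: 50 nL library stock added to about 25 µL; numbers are from one replicate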
PrP 5UTR inh – inhibition of PrP 5' UTR reporter expression. inhibition, % (test concentration not listed). 340,000 tested, 0.35% active. cell-based PrP 5' UTR mRNA reporter, plate reader;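 active means every replicate at 50% or more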;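 further: 0 = median of the neutral control wells; tested in H4 reporter cells; numbers are from one replicate; inactives centre near -14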
Bead autofluor – flagged as autofluorescent in microsphere protease counterscreen. compound autofluorescence counterscreen, microsphere flow cytometry; hits give high values. AID 624483. fluorescence intensity (no concentration beside the values). 360,000 tested, 3.1% active;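 active means at least 3 SD above the mean of all compounds, about 16000 in these data; inconclusive means too few beads counted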;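 further: 100 nL of 1 mM stock went into each well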
RN4220 kill – growth inhibition of S. aureus RN4220, primary screen, OD600. 16 h. inhibition, % (test concentration not listed). 330,000 tested, 0.33% active. AID 1259311, 2017;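 active means z-score of -3 or lower and OD600 up to 0.18 on both plates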;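 further: plate controls were untreated cells for no effect and reference antibiotic for full effect; stock transfer was 100 nL into about 80 µL; one replicate is shown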
Mtb hypoxia inh growth – second read-out of Mtb hypoxia inh, no call of its own (marks repeat the call); growth inhibition, %; measured here: M. tuberculosis growth (absorbance);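 0% = vehicle and 100% = reference antibiotic; read after six days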
* = called active by the depositor; ? = inconclusive; . = no result given.

SMILES	ugtP null kill	Mtb hypoxia inh	Mtb hypoxia inh growth	BJeLR lethal	PrP 5UTR inh	Bead autofluor	RN4220 kill
CNC(=O)NC(=O)COC(=O)c1ccc(-n2c(C)ccc2C)cc1	0	-1	9	4	-12	2575	1.3
COc1ccc(Cl)cc1NC(=O)C1CCCN(S(C)(=O)=O)C1 (configuration not stated)	-2	10	13	-7	2	3541	1.6
CCN(CC)C(=O)c1ccc(CS(=O)(=O)Cc2ccccc2)cc1	1	-6	-4	7	1	3620	1.9
COC(=O)C1=C(C)N(C2CCCCC2)C(=O)C1	0	-1	-1	-2	-10	3194	6.1
O=C(CCCOc1ccc(Cl)cc1)Nc1nncs1	7	0	1	-6	-24	3288	8.4
Cc1ccc(-c2nc3cccnc3o2)cc1NC(=O)COc1ccc(C(C)(C)C)cc1	-15	.	.	1	-19	2612	20
CCOC(=O)C1=C(C)N=c2s/c(=C3\C(=O)Nc4ccccc43)c(=O)n2C1c1ccc2c(c1)OCO2 (configuration not stated)	.	.	.	8	-24	8703	.
CCOc1ccc2nc(-c3cc(NC(C)=O)ccc3O)sc2c1	4	-6	-1	-9	-71	2390	3.3
CC(C(=O)N1CCCCC1)N1CCN(S(=O)(=O)c2ccc(Cl)cc2)CC1 (configuration not stated)	5	5	14	.	-6	3573	-0.5
Cc1ccnc2nc(C(=O)OCC(=O)Nc3ccc4c(c3)OC(F)(F)O4)nn12	-1	12	8	-9	-27	10977	3.7
CS(=O)(=O)N1CCC(C(=O)Nc2ccc(Oc3ccccc3)cc2)CC1	3	5	-3	1	-4	5263	-2.7
CCOC(=O)Cc1c(C)[nH]c(=S)[nH]c1=O	-5	3	0	8	-13	2760	5.4
CCC1=C(OC(=O)N(CC)CC)N2C(=O)OC(=NCC3CC3)[C@]2(Cc2ccccc2)[C@H]2C1=CC[C@H]1C(=O)NC(=O)[C@H]12	.	.	.	-3	-23	3824	.
CN1C2CCC1/C(=C\c1ccccc1F)C(=O)/C2=C/c1ccccc1F	11	4	-7	-10	4	6921	2.4
CCNC(=S)N1CCN(Cc2ccccc2)CC1	0	4	3	4	-9	2556	3.9
COC(=O)c1ccc(COC(=O)c2ccc(C)c(S(=O)(=O)N3CCCCC3)c2)cc1	12	2	-6	.	-28	?	3.0
O=C(O)CSCC(=O)NCc1ccccc1	9	9	3	-6	-23	9138	0.0
Nc1ccccc1SCc1ccccc1	-1	10	5	5	-25	4280	8.1
CCOc1ccc(-n2cnnn2)cc1S(=O)(=O)N1CCCCC1	-9	-9	-1	1	-15	7702	-3.5
COc1ccc(C2(c3ccc(OC)cc3)NC(=O)N(CC(=O)NC(C)C)C2=O)cc1	11	3	-6	10	-26	3553	0.8
O=C1c2ccc(Oc3ccc4c(c3)C(=O)N(CCCCO)C4=O)cc2C(=O)N1CCCCO	-1	18	12	0	-10	4251	-12
CSc1ccccc1C(=O)N1CCC(CCC(=O)NCc2ccc(F)cc2)CC1	0	7	5	-2	-13	5266	2.0
O=C(c1ccc(N2CCOCC2)c([N+](=O)[O-])c1)N1CCN(S(=O)(=O)c2cccs2)CC1	2	-3	-1	6	-16	4149	0.2
Cc1nnc(-c2ccccc2)[nH]c1=O	11	-4	-1	2	-13	3449	7.6
CCOc1cccc(C(=O)Nc2ccncc2)c1	7	2	11	0	7	4188	-0.8
CC(=NOCc1ccc(C#N)cc1)c1ccc(S(=O)(=O)N(C)C)cc1	-8	3	-1	.	.	.	0.6
CC(C)(C)c1ccc(-c2nc(C#N)c(NCc3cccnc3)o2)cc1	3	4	3	-4	-23	17505*	14
COc1ccc(Cl)cc1C(=O)CSc1nc(N)cc(N)n1	-3	5	6	.	-20	9257	2.8
O=C(C(=O)N1CCN(c2ccc([N+](=O)[O-])cc2)CC1)c1cn(CC(=O)N2CCOCC2)c2ccccc12	6	7	-3	-6	-11	5301	-0.3
COc1cc2c(C(=O)N3CCN(C)CC3)c(CSc3ccccc3)n(C)c2cc1Br	2	-4	10	2	-15	3160	7.6
CCCNC(=O)c1ccc(Cl)c(Cl)c1	0	.	.	-4	4	4166	9.7
Cc1ncc(CO)c(C=NNC(=S)Nc2ccc(F)cc2)c1O	-20	14	-3	.	.	.	-2.5
Cc1ccc(NC(=O)CCNC(=O)c2ccccc2Cl)cc1S(=O)(=O)N(C)C	-1	9	-1	1	9	3041	2.0
Cc1nn(C(C)C(=O)Nc2ccc(Cl)cn2)c(C)c1[N+](=O)[O-] (configuration not stated)	13	9	6	-1	7	9607	0.7
CCOc1ccc(C(=O)COC(=O)c2nc3nccc(C)n3n2)cc1	6	-5	5	.	-11	3169	2.2
O=C(COC(=O)c1ccc2c(c1)C(=O)N(CCc1ccccc1)C2=O)Nc1ccc(OC(F)F)cc1	-3	2	3	-2	-14	2288	6.0
CCOC(=O)CN(C(=O)CSc1nnc(CNc2ccc(F)cc2)n1C)c1ccccc1	10	.	.	-6	-9	3401	-3.4
COc1ccc(C)cc1S(=O)(=O)Nc1ccccc1C	-7	.	.	-2	3	5937	-1.9
C/C(=N\NC(=O)c1ccc(Cl)cc1)c1cccc(NC(=O)c2cccnc2)c1	.	.	.	3	-24	6816	.
O=[N+]([O-])c1cc(S(=O)(=O)Nc2ccccc2)ccc1N1CCN(c2ccc(O)cc2)CC1	-8	0	0	-13	-19	2586	6.1
Cc1cc(OC(=O)c2ccccc2Br)c([N+](=O)[O-])c(=O)[nH]1	11	7	3	-4	-10	6271	6.3
Cc1cccc(OCCn2cc(/C=N/NC(=O)c3ccncc3)c3ccccc32)c1	.	.	.	2	-22	1965	.
O=C(NCCc1nc2ccccc2[nH]1)/C(=C/c1ccco1)NC(=O)c1ccc(Br)cc1	7	-13	-12	-5	3	2368	4.1
CCOc1cccc(CNCCNC(=O)c2nonc2N)c1	3	6	1	1	-11	22612*	-0.1
CC(=O)c1ccc(NC(=O)C(C)Sc2nnc(C3CC3)n2C2CC2)cc1 (configuration not stated)	6	5	5	.	-21	3006	2.3
S=C(NCCc1ccccc1)N1CCCC1	0	13	11	-5	-12	5574	1.6
NSc1nc(N)c2nc(-c3ccccc3)c(-c3ccccc3)nc2n1	8	1	-3	-1	-13	3656	7.5
Cc1ccc(C(=O)ON=C2CCS(=O)(=O)c3sccc32)cc1	-4	.	.	.	.	.	-21
Cc1sc2ncnc(SCC(=O)N3CCCCC3)c2c1C	-2	.	.	-3	-19	3774	-1.2
COC(=O)c1onc(-c2ccccc2)c1C(=O)OC	2	5	5	-7	-20	2650	-13
C[C@]12CCC(=O)C=C1C=CC1C2CC[C@@]2(C)C1CC[C@@H]2O (some centres not stated)	4	6	5	.	-8	3772	1.6
COc1ccc(C2CC(=O)C=C(c3ccc(Cl)c(F)c3)C2)cc1 (configuration not stated)	-10	-3	7	.	.	.	-2.3
O=C(CN1C(=O)NC(c2ccccc2)(c2ccccc2)C1=O)N1CCN(c2ccc(F)cc2)CC1	-3	-3	2	.	-2	8838	3.0
Cc1ccc(NC(=O)/C(=C/c2cccc([N+](=O)[O-])c2)NC(=O)C2CCCCC2)cc1	-1	16	5	2	2	8880	2.1
CCN1CCN(c2cc(=O)n3ccccc3n2)CC1	5	5	9	3	1	3642	1.2
COC(=O)c1ccc(C(=O)OC)c(NC(=O)Nc2ccc3c(c2)OCO3)c1	-10	6	6	-12	-35	3955	1.1
CN1CCN(C(=O)C2CC(c3c(F)cccc3Cl)=NO2)CC1 (configuration not stated)	4	-2	2	-1	-24	7847	1.4
COc1ccc(/C=N/NC(=O)c2ccccc2OC)cc1COc1ccc(C)cc1	.	.	.	0	-8	4322	.
O=C(NCCCN1CCOCC1)c1cc(C(=O)C2CCCCC2)c[nH]1	6	7	13	-10	-12	4222	0.9
CCOc1ccc(N(CC(=O)Nc2ccc(C)cc2)S(=O)(=O)c2c(C)noc2C)cc1	7	.	.	-2	0	4266	-0.9

Further results follow:
SMILES	ugtP null kill	Mtb hypoxia inh	Mtb hypoxia inh growth	BJeLR lethal	PrP 5UTR inh	Bead autofluor	RN4220 kill
Cc1cc(=O)oc2cc(OCC(=O)OCC(=O)NC(=O)NC(C)C)ccc12	4	-11	-12	.	-59	4193	2.9
COc1ccc(-c2[nH]nc3c2C(c2ccccc2OC(=O)N2CCOCC2)C(C#N)=C(N)O3)cc1 (configuration not stated)	16	5	7	2	-43	20595*	1.3
COc1ccccc1N1CCN(N=Cc2cccnc2)CC1	12	-2	-8	.	.	.	0.5
O=C(COC(=O)CCS(=O)(=O)c1ccccc1)Nc1cc(S(=O)(=O)N2CCCCC2)ccc1Cl	0	-2	-2	-4	-10	6628	3.4
Cc1ccn2cc(CNC(=O)c3cccs3)nc2c1	-7	-7	3	3	-20	5588	-4.6
O=C(CSc1nncc2ccccc12)N1CCOCC1	-3	-2	8	-6	-11	?	4.1
CC(=O)c1sc(-c2ccc(F)cc2)cc1NS(=O)(=O)c1ccccc1	2	4	-2	6	-25	?	0.2
CC(Oc1ccc(F)cc1)C(=O)Oc1ccc(N(C)S(=O)(=O)c2ccccc2)cc1 (configuration not stated)	7	10	-8	0	-24	?	4.6
CC(C)[C@H](NS(=O)(=O)c1ccccc1)C(=O)OCn1nnc2ccccc2c1=O	.	.	.	6	0	3074	.
O=C(Nc1ccc(S(=O)(=O)N2CCCCC2)cc1)C1CCN(C(=O)c2ccco2)CC1	7	0	2	5	-10	5624	0.8
Cc1nc(N2CCN(C(=O)c3ccco3)CC2)c2oc3ccccc3c2n1	-1	13	4	7	-1	3269	9.2
COC(=O)C1=C(c2cc3ccccc3s2)C[C@@H]2CC[C@H]1N2C(=O)N1CCC(C)CC1	.	.	.	8	-12	4162	.
CC1=CC(C)(C)N(C(=O)Nc2ccccc2)c2ccccc21	5	-5	5	0	-7	4535	4.4
CCc1ccc(-n2cc(-c3ccc(F)cc3)[n+]3c2SCCC3)cc1	-4	6	-1	13	-15	3497	0.8
Cc1c(N(C)S(=O)(=O)c2cccc(C(=O)NCC3CCCO3)c2)c(=O)n(-c2ccccc2)n1C (configuration not stated)	-1	-11	-6	0	-5	5832	-0.8

Entries shown so far with a tert-butyl group:
SMILES	ugtP null kill	Mtb hypoxia inh	Mtb hypoxia inh growth	BJeLR lethal	PrP 5UTR inh	Bead autofluor	RN4220 kill
Cc1ccc(-c2nc3cccnc3o2)cc1NC(=O)COc1ccc(C(C)(C)C)cc1	-15	.	.	1	-19	2612	20
CC(C)(C)c1ccc(-c2nc(C#N)c(NCc3cccnc3)o2)cc1	3	4	3	-4	-23	17505*	14

Going on with the list:
SMILES	ugtP null kill	Mtb hypoxia inh	Mtb hypoxia inh growth	BJeLR lethal	PrP 5UTR inh	Bead autofluor	RN4220 kill
S=C1NCN(Cc2ccccc2)CN1	1	3	-1	0	-12	3681	3.3
Cc1cc(C)cc(NC(=O)CSc2nnc(Cc3cccn3C)n2-c2ccc(F)cc2)c1	5	.	.	-1	-36	5446	-1.4
Cc1ccc(SCC(=O)Nc2ccc(S(=O)(=O)Nc3ncccn3)cc2)cc1	-3	8	4	11	-29	4396	4.8
CCOC(=O)CN(C(=O)CSc1nnc(-c2cccc(OC)c2)o1)c1ccc(F)cc1	5	-7	-4	-6	-17	9958	-3.9
COc1ccc(COC(=O)N/C=C/c2ccco2)cc1	-3	7	1	1	-25	4083	5.7
Cc1cccc(CNc2ncnc3ccc(-c4cccnc4)cc23)c1	-17	12	8	.	-6	3462	11
Cc1cccc(NC2=NC(=S)N(c3ccc(C(=O)O)cc3)C23CCCCC3)c1	11	-1	3	-2	-4	2878	25
CCCCN(C/C=C/c1ccccc1OC)Cc1ccccc1	18	.	.	-3	-13	?	9.8
CCN(CC(=O)Nc1c(F)cccc1F)C(=O)CCN1C(=O)c2cccc([N+](=O)[O-])c2C1=O	0	-3	-1	4	-23	5719	2.2
CCOC(=O)Cn1nnc(-c2ccccc2)n1	7	.	.	-7	-14	3803	1.8
CCNC(=O)C(Sc1ccccc1)c1ccccc1 (configuration not stated)	1	11	0	-5	1	5976	1.9

Gathered by group: the entries above containing a cyano group
SMILES	ugtP null kill	Mtb hypoxia inh	Mtb hypoxia inh growth	BJeLR lethal	PrP 5UTR inh	Bead autofluor	RN4220 kill
CC(=NOCc1ccc(C#N)cc1)c1ccc(S(=O)(=O)N(C)C)cc1	-8	3	-1	.	.	.	0.6
CC(C)(C)c1ccc(-c2nc(C#N)c(NCc3cccnc3)o2)cc1	3	4	3	-4	-23	17505*	14
COc1ccc(-c2[nH]nc3c2C(c2ccccc2OC(=O)N2CCOCC2)C(C#N)=C(N)O3)cc1 (configuration not stated)	16	5	7	2	-43	20595*	1.3

Not a hit list; any-hit rate near 4%.
